Assay outcomes: PubChem BioAssay, several laboratories
Mtb hypoxia rep – PubChem AID 1159583. M. tuberculosis hypoxia-regulated fluorescent reporter, fluorescence. fluorescence inhibition, % (concentration not given with the values). hit rate 0.1% among 300,000;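 active = 35 to 45% if threefold the growth effect, above 45% if 1.5-fold the growth effect; inactive = the rest, general growth blockers included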;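 also: wells of about 50 µL received 100 nL stock; 0% = vehicle wells and 100% = reference inhibitor wells; whole bacteria with a GFP reporter of the hypoxia response; strong numbers were not always called active; many hits fall short of the cut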
PrP 5UTR inh – inhibition of PrP 5' UTR reporter expression. cell-based PrP 5' UTR mRNA reporter, plate reader. inhibition, % (no concentration beside the values). hit rate 0.35% among 340,000;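 active = every replicate at 50% or more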;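 also: 0 = median of the neutral control wells; tested in H4 reporter cells; numbers are from one replicate; inactives centre near -14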
Sa ugtP lethal – growth inhibition of ugtP-null S. aureus, primary screen, RN4220 ugtP deletion, OD600 | 16 h; some inactives read as strong as hits | growth inhibition, % (concentration not given with the values) | hit rate 0.54% among 330,000 | AID 1259309, 2017;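 active = z-score under -3 and OD600 up to 0.15 on both plates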;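 also: plate controls were untreated wells for no effect and antibiotic for full effect; wells of about 80 µL received 100 nL stock; the first replicate is given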
Sa RN4220 lethal – growth inhibition of S. aureus RN4220, primary screen, OD600; hit rate 0.33% among 330,000; 16 h; inhibition, % (no concentration beside the values); AID 1259311, 2017;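 active = z-score of -3 or lower and OD600 up to 0.18 on both plates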;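 also: plate controls were untreated cells for no effect and reference antibiotic for full effect; stock transfer was 100 nL into about 80 µL; one replicate is shown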
Bead autofluor – compound fluorescence in toxin protease inhibitor counterscreen. compound autofluorescence counterscreen, microsphere flow cytometry; hits give high values. fluorescence intensity (no concentration beside the values). hit rate 3.1% among 360,000. AID 624483;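 active = at least 3 SD above the mean of all compounds, about 16000 in these data; inconclusive = too few beads counted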;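 also: 100 nL of 1 mM stock went into each well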
BJeLR viability – MLPCN primary cell-based screen for lethality selective to Ras in HRASV12 cells | BJeLR (HRASV12) viability, CellTiter-Glo ATP luminescence, 48 h; reference of the scale not given here | inhibition, % (test concentration not listed) | hit rate 0.17% among 300,000;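 active = replicate mean above 50%; inconclusive = above 50% but judged a plate artefact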;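 also: 50 nL library stock added to about 25 µL; numbers are from one replicate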
Mtb hypoxia rep growth – also measured in Mtb hypoxia rep; calls as there; growth inhibition, %; measured here: M. tuberculosis growth (absorbance);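 0% = vehicle and 100% = reference antibiotic; read after six days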
The depositor's hits bear a star; ? = inconclusive; · = not tested or not shown; & = joins results of further samples. Rows are unselected. Share with any hit: about 4.1%.

SMILES	Mtb hypoxia rep	Mtb hypoxia rep growth	PrP 5UTR inh	Sa ugtP lethal	Sa RN4220 lethal	Bead autofluor	BJeLR viability
COCCNC(=O)C(C)OC(=O)c1cc2sccc2n1C (configuration not stated)	-5	2	-23	5	2.5	3804	0
CC1(C)C2CCC1(CS(=O)(=O)N1CCN(c3ccc(F)cc3)CC1)C(=O)C2 (configuration not stated)	-3	13	-9	4	6.6	3753	6
CCC(C)(C)C1CCC2(CC1)NC(=S)N(c1ccccc1)N2 (configuration not stated)	2	-7	-37	50	-2.1	4992	-2
COc1ccc(CC(=O)N2CCN(c3ccccn3)CC2)cc1OC	·	·	1	6	2.2	3492	·
CC1=C(C(=O)N2CCOCC2)C(c2ccccc2F)C2=C(CC(C)(C)CC2=O)N1 (configuration not stated)	1	10	-10	-1	9.0	19197*	17
CC(Oc1ccc2ccccc2c1)C(=O)NNC(=O)Nc1ccccc1F (configuration not stated)	-2	-1	4	-5	-1.4	5796	1
OCCNc1nc(Nc2cccc(O)c2)nc2ccccc12	-13	-4	-11	5	4.1	6102	-3
CCc1ncc(CN2CCC(C(=O)Nc3ccc(-n4nc(C)cc4C)cc3)CC2)cn1	-1	9	1	2	0.4	5874	1
O=[N+]([O-])c1ccc(C2OCCO2)cc1CS(=O)(=O)c1ccccc1	9	5	-11	13	6.1	2744	5
O=C(Nc1ccccc1)C1CCN(c2nccs2)CC1	·	·	0	3	0.9	?	3
Cc1ccc(SC(C)C(=O)NC(N)=O)c(C)c1 (configuration not stated)	9	-2	-14	7	2.6	4228	-3
Cc1nc(SCC(=O)NNC(=O)c2cccs2)[nH]c(=O)c1C	12	1	-9	-4	3.8	2645	-1
O=C(c1cccc(Cl)c1)N1CCC(N2CCC(C(=O)N3CCOCC3)CC2)CC1	3	5	-28	2	1.8	4129	1
O=C1CCCC2=C1C(c1cccnc1)Nc1ccccc1N2 (configuration not stated)	7	-1	-14	-1	3.1	3921	-7
O=C(O)CCC(=O)Nc1ccc(C(=O)OCC(=O)c2ccc(Cl)cc2)cc1	6	0	-19	6	7.0	4184	4
S=c1[nH]nc(-c2ccc(Cl)cc2)n1N=Cc1cccs1	-1	18	·	-13	3.0	·	·
Cc1cccc(NC(=O)CSc2nnc(C3CC3)n2CC2CCCO2)c1C (configuration not stated)	10	0	-14	7	1.8	5974	-16
CC[C@@H]1[C@H]2CCCC(=O)N3CC[C@@H](C[C@@H]1OC(=O)Nc1ccccc1)[C@@H]23	·	·	-9	·	·	3355	-3
CNC(=S)N/N=C(\C)c1ccc(Cl)c(Cl)c1	·	·	-18	·	·	4362	-34
CN(C)c1ccc(S(=O)(=O)N2CCCCC2)cc1NC(=O)C1=NN(c2ccccc2)C(=O)CC1	0	0	-6	-1	2.1	5885	-6
CC(=O)C(=NNc1ccccc1)Oc1ccc(Br)cc1	2	-2	·	14	-10	·	·
Cc1cc(C)c(S(=O)(=O)NCCSCc2ccco2)c(C)c1	7	-1	-31	-4	5.3	8586	·
COc1ccc(OC)c(CC(NC(C)=O)C(=O)NC2CCN(c3nc(OC)nc(OC)n3)CC2)c1 (configuration not stated)	0	-1	-10	0	0.8	4325	-14
COc1ccc(OCCOC(=O)CN2C(=O)NC3(CCCC3)C2=O)cc1	1	0	-16	8	3.5	6396	13
Cc1ccc(C2CC(C(F)F)n3ncc(C(=O)Nc4cnn(Cc5ccccc5C)c4)c3N2)cc1 (configuration not stated)	7	0	-24	-17	-21	3126	0
CCC(=O)N1CCc2cc(S(=O)(=O)CCC(=O)NC3CCCCC3)ccc21	-7	8	-10	-1	0.7	5894	-6
CNC(=O)N(C1=NCC(C)S1)c1ccc(F)cc1F (configuration not stated)	-1	8	-7	-1	5.1	23465*	-6
CC(C)=CCCC(C)CN1CCC(O)CC1 (configuration not stated)	7	11	-5	3	3.0	10793	20
CCCCC(CC)C(=O)Nc1ccc(S(=O)(=O)Nc2nccs2)cc1 (configuration not stated)	6	-6	-6	-1	3.0	3950	-2
COc1ccc(NC(=O)CC(Cc2ccccc2)C(=O)O)cc1 (configuration not stated)	18	4	-19	-1	4.1	22709*	-6
COC(=O)c1cc(NC(=O)CSC2=NCCS2)cc(C(=O)OC)c1	10	-4	-14	8	1.8	3250	10
CCn1c2ccccc2c2cc(NC(=O)CC(C)=O)ccc21	3	-3	-35	0	3.3	10821	-3
CCOc1cc(C2C3=C(CCCC3=O)N(CCC(=O)O)C3=C2C(=O)CCC3)ccc1OS(=O)(=O)c1ccc(C)cc1	2	2	-26	-6	6.6	10531	11
O=C(CN1C(=O)/C(=C/c2ccco2)SC1=S)Nc1ccc(C(=O)O)c(O)c1	3	-2	-7	-1	4.3	5058	12
CCOc1cc(C(=O)Nc2ccc(S(=O)(=O)Nc3nnc(CC)s3)cc2)cc(OCC)c1OCC	-4	7	2	9	1.6	3645	-2
CC(=O)Nc1ccc(Nc2cc(N(C)C)c3nonc3c2[N+](=O)[O-])cc1	2	8	-11	4	3.3	3658	2
NC(=O)c1ccc[n+](Cc2cccc3ccccc23)c1	12	7	-16	2	2.6	2170	6
CC(C)(C)c1cc(NC(=O)Nc2ccccc2)no1	1	4	-83	4	0.3	3966	-4
CCCCCCn1c(SCCOC)nc2c1c(=O)[nH]c(=O)n2C	0	13	-19	-3	-8.8	5491	-17
O=C(Nc1cccc(-c2csc(Nc3cccc(C(F)(F)F)c3)n2)c1)c1cc([N+](=O)[O-])cc(C(F)(F)F)c1	-1	-4	-11	9	6.7	3294	-10
O=C(Nc1cccn(Cc2c(Cl)cccc2Cl)c1=O)c1ccc(Cl)cc1Cl	-2	10	-30	-12	13	6515	2
Cc1ccc(CN2C(=O)CNC2=S)cc1	7	3	-10	1	0.6	3256	6
COC(=O)COc1cccc(NC(=O)c2cc(OC)cc(OC)c2)c1	-7	-11	-5	4	3.2	6879	-3
N[C@@H](Cc1c[nH]c2ccccc12)c1nnc(SCc2ccccc2)o1	13	12	-9	-9	9.0	4809	8
Nc1nc(N)c2cc(Sc3ccc4ccccc4c3)ccc2n1	-11	16	·	99*	100*	·	60*
CC(=O)Oc1ccc(-c2ccc(C(=O)OCC(=O)N(C)CC(=O)Nc3ccccc3Cl)cc2)cc1	9	14	-2	5	6.1	4270	-7
CC1=C(C(=O)OCc2ccc3c(c2)OCO3)C(c2ccccc2OCc2ccccc2)NC(=O)N1 (configuration not stated)	-4	4	-10	-12	1.0	10422	2
COc1ccc(N(CC(=O)Nc2ccc(S(=O)(=O)N3CCCC3)cc2)S(C)(=O)=O)cc1OC	4	-2	-26	1	1.7	5722	-6

An excerpt of these results, comma-delimited:
SMILES,Mtb hypoxia rep,Mtb hypoxia rep growth,PrP 5UTR inh,Sa ugtP lethal,Sa RN4220 lethal,Bead autofluor,BJeLR viability
CCn1c2ccccc2c2cc(NC(=O)CC(C)=O)ccc21,3,-3,-35,0,3.3,10821,-3
CCOc1cc(C2C3=C(CCCC3=O)N(CCC(=O)O)C3=C2C(=O)CCC3)ccc1OS(=O)(=O)c1ccc(C)cc1,2,2,-26,-6,6.6,10531,11
O=C(CN1C(=O)/C(=C/c2ccco2)SC1=S)Nc1ccc(C(=O)O)c(O)c1,3,-2,-7,-1,4.3,5058,12
CCOc1cc(C(=O)Nc2ccc(S(=O)(=O)Nc3nnc(CC)s3)cc2)cc(OCC)c1OCC,-4,7,2,9,1.6,3645,-2
CC(=O)Nc1ccc(Nc2cc(N(C)C)c3nonc3c2[N+](=O)[O-])cc1,2,8,-11,4,3.3,3658,2
NC(=O)c1ccc[n+](Cc2cccc3ccccc23)c1,12,7,-16,2,2.6,2170,6
CC(C)(C)c1cc(NC(=O)Nc2ccccc2)no1,1,4,-83,4,0.3,3966,-4
CCCCCCn1c(SCCOC)nc2c1c(=O)[nH]c(=O)n2C,0,13,-19,-3,-8.8,5491,-17
O=C(Nc1cccc(-c2csc(Nc3cccc(C(F)(F)F)c3)n2)c1)c1cc([N+](=O)[O-])cc(C(F)(F)F)c1,-1,-4,-11,9,6.7,3294,-10
O=C(Nc1cccn(Cc2c(Cl)cccc2Cl)c1=O)c1ccc(Cl)cc1Cl,-2,10,-30,-12,13,6515,2
Cc1ccc(CN2C(=O)CNC2=S)cc1,7,3,-10,1,0.6,3256,6
COC(=O)COc1cccc(NC(=O)c2cc(OC)cc(OC)c2)c1,-7,-11,-5,4,3.2,6879,-3
N[C@@H](Cc1c[nH]c2ccccc12)c1nnc(SCc2ccccc2)o1,13,12,-9,-9,9.0,4809,8
Nc1nc(N)c2cc(Sc3ccc4ccccc4c3)ccc2n1,-11,16,·,99*,100*,·,60*
CC(=O)Oc1ccc(-c2ccc(C(=O)OCC(=O)N(C)CC(=O)Nc3ccccc3Cl)cc2)cc1,9,14,-2,5,6.1,4270,-7
CC1=C(C(=O)OCc2ccc3c(c2)OCO3)C(c2ccccc2OCc2ccccc2)NC(=O)N1 (configuration not stated),-4,4,-10,-12,1.0,10422,2

Next part:
SMILES	Mtb hypoxia rep	Mtb hypoxia rep growth	PrP 5UTR inh	Sa ugtP lethal	Sa RN4220 lethal	Bead autofluor	BJeLR viability
CCN1C(=O)[C@H]2[C@@H](c3ccc(-c4ccc(F)cc4)c(OC)c3)N[C@@](C)(C(=O)OC)[C@H]2C1=O	·	·	-4	·	·	4041	-3
CC1(C)Cc2cccc(OCC(=O)N3CCN(c4ccccc4F)CC3)c2O1	10	8	-4	11	4.6	5438	-2
C=CCNC(=O)C1CC(=O)N(c2ccc(OCC(=O)Nc3ccc(Cl)c(C(F)(F)F)c3)cc2)C1 (configuration not stated)	9	15	-16	-1	3.4	9526	10
COc1ccc(NC(=O)CC2SC(=Nc3ccccc3)NC2=O)cc1 (configuration not stated)	3	6	-4	-3	7.6	4365	-15
O=c1c2c3n(c(=O)nc2[nH]n1-c1ccccc1)CCCCC3	7	4	-26	-4	2.4	2545	-5
Cc1ccc(C(=O)Nc2ccccc2N2CCCC2)cc1	17	9	-22	13	8.2	4040	5
COc1ccc(NC(=O)C(=O)NCC2CCCN2S(=O)(=O)c2cccs2)cc1 (configuration not stated)	-5	9	-12	5	1.3	·	26
Cc1cc(C)nc(SCC(=O)Nc2ccc(S(=O)(=O)Nc3nccs3)cc2)n1	14	17	-15	-2	10	7865	3
CC(=O)c1cccc(NC(=O)c2onc(C)c2Cl)c1	6	8	-24	3	2.2	5061	0
COCCCNC(=O)C[C@H]1C[C@H](C(=O)N2CCOCC2)[C@@]2(CCC3CCCC3)c3[nH]c4cc(CCC(=O)N(C)C)ccc4c3CCN2C1=O	8	6	-7	1	0.9	2941	·
COC(=O)CC1c2cc(C(F)(F)F)ccc2S(=O)(=O)N1C1CCCC1 (configuration not stated)	15	13	·	0	3.5	·	·
COc1ccccc1C(=O)N1CCCC1(C#N)c1ccccc1 (configuration not stated)	13	11	83*	7	5.4	3084	6
COc1ccc(S(N)(=O)=O)cc1C(=O)NCCCN1CCN(c2ccccc2OC)CC1	·	·	-12	·	·	10460	-7
Cc1ccc(NC(=S)N/C(=N/S(=O)(=O)c2ccccc2)c2ccccc2)cc1	11	9	-54&-47	-12	7.9	4274&2843	9
Cc1nn(C)cc1C(=O)NNC(=S)Nc1ccccc1	8	1	-23	6	6.3	3439	0
Cc1cc(OCc2ccc(F)cc2)nc(-c2ccccc2O)n1	2	-7	-34	2	-3.8	6986	7
CC(CC(=O)NC1CCSC1=O)c1ccccc1 (configuration not stated)	2	11	-16	-3	4.8	11715	3
Cc1noc(C)c1CSCC(=O)N(C)CC(=O)Nc1ccccc1C(F)(F)F	2	2	-4	0	2.4	6406	·
CC(Sc1nnc(-c2ccccc2)c(-c2ccccc2)n1)C(=O)N1CCc2ccccc21 (configuration not stated)	-10	22	-6	48	-9.9	2564	-5
COc1cccc(-c2cc(C(=O)N/N=C/c3ccco3)c3ccccc3n2)c1	·	·	-18	·	·	7331	8
Cc1oc(-c2ccccc2Cl)nc1CS(=O)(=O)CC(=O)NCCN1CCOCC1	0	1	-11	8	9.4	6417	6
Cc1ccc(C=N/N=C2/NC(=O)C(CC(=O)Nc3ccccc3)S2)o1 (configuration not stated)	3	1	·	-1	3.3	·	·
COc1cccc(NC(=O)CSc2ccc3nnc(-c4ccncc4)n3n2)c1	3	-1	-37	3	2.9	5748	-7
